# fixLJ activator: B. multivorans fixK reporter activation; B. multivorans fixK-promoter GFP reporter, 18 h; active compounds read high; z-score (test concentration not listed); hit rate 0.3% among 29,000; AID 1918990;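 active means replicate mean overnight rise in green fluorescent reporter signal, 3 or more SD over negative controls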;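 further: score is relative to vehicle wells of the plate; 300 nL library stock went into each well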
# Numbers without * were called inactive; & = joins results of further samples. Only part of the results is shown; count on the stated rates, not on these rows.
SMILES,fixLJ activator
Cc1ccc(-c2nnc(Nc3ccc(Br)cc3)c3ccccc23)cc1S(=O)(=O)N1CCCCC1,-2.3
Cc1ccc(Cn2c(SCc3ccc(C(=O)O)cc3)nc3cccnc32)cc1,-0.09
O=C(Nc1cccc(C(F)(F)F)c1)C1CCN(S(=O)(=O)c2cccs2)CC1,-0.55
O=C(C1CCC1)N1CCc2cc(S(=O)(=O)NCc3ccc(F)cc3)ccc21,-0.67
CCOc1ccc(NC(=O)C(=O)NCc2ccco2)cc1,-1.2
CCCc1nc(C(C)(C)O)c(C(=O)OCc2oc(=O)oc2C)n1Cc1ccc(-c2ccccc2-c2nn[nH]n2)cc1,-1&-0.14
Cc1ccccc1S(=O)(=O)Cc1ccc(C(=O)NCCc2ccccc2)o1,-0.1
COc1ccc(NC(=O)C(C)n2nnc3sc(-c4ccccc4)cc3c2=O)cc1Cl (stereo unspecified),0.2
CSCCCNS(=O)(=O)c1ccc(C(=O)NC2CCOC2)cc1 (stereo unspecified),-1.2
COc1ccc(OC)c(CCNC(=O)CS(=O)(=O)Cc2nc(-c3cccc(Cl)c3)oc2C)c1,-0.8
COc1ccccc1/C=C/c1nc(C#N)c(N2CCN(c3ccccc3)CC2)o1,0.64
COc1ccccc1N1CCN(S(=O)(=O)c2c(C)sc3ncn(CC(=O)Nc4cccc(Cl)c4)c(=O)c23)CC1,-0.94
CC(C)C(=O)NCCNc1cc(-c2ccccc2)nc2ccnn12,-0.27
Cc1cccc(N2CCN(C(=O)CN3CC4(CCCCC4)CC3=O)CC2)n1,-0.26
CCOc1ccc(NC(=O)Cn2cc(C(=O)c3ccc(C)c(C)c3)c(=O)c3cc(OC)c(OC)cc32)cc1,-1.4
CCOc1ccc(Cn2c(=O)oc3ccccc32)cc1,0.78
O=C(NCCN1CCCC(CO)C1)c1cccc(-c2ncccc2Cl)c1 (stereo unspecified),-3.8
COc1cccc(-c2nnc(SCC(=O)N3CCCCC3)o2)c1,0.5
COc1cc(-c2nc(C)c(C)c(C)c2C#N)cc(OC)c1OC,-0.36
Cc1cccc(NC(=O)Cn2cc(C(=O)c3ccco3)c3ccccc32)c1,-1.5
Cc1ccc(C)n1-c1nnc(N2CCC(C(=O)Nc3ccccc3Br)CC2)s1,0.54
Cc1ccc(C)c(N2CCN(C(c3ccccc3)c3nnc(-c4ccccc4)o3)CC2)c1 (stereo unspecified),-0.31
CCC(Oc1ccc(F)cc1)C(=O)Nc1c(C(=O)c2ccc(C)cc2)oc2ccccc12 (stereo unspecified),0.08
Cc1cc(C(=O)N2CC3c4ccccc4OC[C@]3(C(=O)O)C2)c(C)o1 (stereo partly specified),0.8
Cc1ccc(CNC(=O)c2oc3ccc(S(=O)(=O)N4CCCC(C)C4)cc3c2C)cc1 (stereo unspecified),-0.42
NC(=O)c1noc(CN2CCN(CCc3ccccc3)C(=O)C2)n1,-1.7
CCN(CC)CCCNC(=O)c1cn(CC)c2ccc(S(=O)(=O)N3CCC(C)CC3)cc2c1=O,-0.05
COc1ccccc1CNC(=O)C1CCCN(S(=O)(=O)c2ccc3c(c2)oc(=O)n3C)C1 (stereo unspecified),-0.91
Cc1ccc(-n2c(SCC(=O)NCc3ccccc3)nc3c([nH]c4ccccc43)c2=O)cc1,-1.5
CC(c1ccc2c(c1)OCCO2)N(C)C(=O)Nc1ccc2c(c1)OCC(=O)N2 (stereo unspecified),-1.5
CCc1ccc(C(=O)CSc2nc(-c3ccccc3)nc3c2CCCC3)cc1,0.41
CCCOc1ccc(C(=O)N(Cc2ccccc2Cl)C2CCS(=O)(=O)C2)cc1 (stereo unspecified),-1.1
COc1cccc(OCc2nc3ccccc3n2CCOc2cccc(C)c2)c1,-0.36
Cc1ccc(N2CCN(C(=O)c3cc4cc5ccc(C)cc5nc4s3)CC2C)cc1 (stereo unspecified),0.17
Cc1nc(=O)[nH]c(C)c1CCC(=O)NCCc1cn2ccsc2n1,2
CCCCN1CC2(CCCN(C(=O)c3cccnc3OC)C2)CCC1=O (stereo unspecified),-0.45
Cc1ccc(-c2nn(C)c(=O)c3ccccc23)cc1S(=O)(=O)NCCCN(C)C,-1.6
CC(=O)Nc1ccc(Nc2nc3ccc(Cl)cc3n3cnnc23)cc1,0.59
CN(CCO)Cc1nnc(C2CCN(C3CCCC3)CC2)n1C,-0.41
Cc1ccc(C)c(N2CCN(c3nc4c(S(=O)(=O)c5ccccc5)nnn4c4ccc(Cl)cc34)CC2)c1,-0.13
Cc1ccc(C)c(CN2C(=O)c3ccccc3S(=O)c3ccc(C(=O)N(C)Cc4ccccc4)cc32)c1 (stereo unspecified),0.66
CC(C)NS(=O)(=O)c1ccc(OCC(=O)N2CCN(c3cccc(Cl)c3)CC2)cc1,-1.2
CC(=O)c1ccc(NC(=O)C(Cc2ccccc2)NS(=O)(=O)c2ccc3c(c2)CCC(=O)N3)cc1 (stereo unspecified),-1.1
COc1ccccc1C(=O)Nc1onc2c1CCCC2,-1.6
Cc1nn(C)c(C)c1-c1cc(C(=O)N2CCC3(CCCO3)CC2)n(C)n1,-1.1
CN(C)CCN(Cc1cccs1)c1ccccn1,-0.01
Nc1ccc(S(=O)(=O)Nc2cnc3ccccc3n2)cc1,-0.59
O=c1n(Cc2cccc(F)c2)c2ccccc2c2nc(-c3ccccc3)nn12,-1
CCc1ccc(-n2nc(CO)c(C(=O)NCc3ccccc3Cl)n2)cc1,0.67
Cc1ccc(-n2nc3cc(C)c(NC(=O)c4ccc(-c5ccccc5)o4)cc3n2)cc1,-0.09
# Continued.
SMILES,fixLJ activator
Cc1cccc(NC(=O)CCc2c(C)nc3c(c(C)nn3C(C)(C)C)c2C)c1C,-1
CCCCn1c(CNC(=O)C23CC4CC(CC(C4)C2)C3)nnc1SCC(=O)Nc1ccc(C)cc1,0.15
CC(C)c1ccc(OCc2cc(=O)n3c4c(sc3n2)CCCC4)cc1,-2.1
COc1ccc(C(=O)N2CCCCC2CCN2CCOCC2)cc1 (stereo unspecified),-0.7
COCCCNC(=O)CSc1nc2c(sc3ccccc32)c(=O)n1CCCC(=O)NCCOC,-0.62
Fc1ccccc1-n1ncc2c1ncn1nc(-c3ccccc3Cl)nc21,-0.12
Cc1cc(=O)n2nc(N(C)CC(=O)NCc3ccccc3C)sc2n1,-0.92
Cc1cc(C)cc(NC(=O)CCc2c(C)nc3c4cccnc4nn3c2C)c1,-0.3
CCOC(=O)N1CCC(NC2CCN(Cc3ccccn3)CC2O)CC1 (stereo unspecified),-2.9
Cn1ncc2c(NC(Cc3ccccc3)C(N)=O)nc(-c3ccncc3)nc21 (stereo unspecified),1.5
Cc1cc(-c2nc3ncccc3o2)ccc1NC(=O)c1ccccc1Br,-1.6
Cc1cc(Cl)ccc1S(=O)(=O)N1CCC(O)C(C(=O)O)C1 (stereo unspecified),-0.98
Cc1ccccc1Cn1c(CN2CCN(c3cc(Cl)ccc3C)CC2)nc2c1c(=O)[nH]c(=O)n2C,0.47
CCc1ncc(C(=O)N2CCC(c3nccn3Cc3cccnc3)CC2)cn1,1.1
CC1CCN(C(=O)C(C)Sc2nc(-c3ccccc3)cc(C(F)(F)F)n2)CC1 (stereo unspecified),1
Cc1sc2c(c1C)c(=O)n(Cc1ccccc1)c(=O)n2CC(=O)N(C)c1ccccc1,-0.63
COc1ccc2cc(C3CN(C(=O)c4cccnc4)CCO3)ccc2c1 (stereo unspecified),-0.72
COc1cccc(-c2ccc(-c3noc(-c4ccccc4Br)n3)c(OC)n2)c1,-3.2
CCOc1ccc(NC(=O)N2CCCN(C(=O)c3ccc(F)c(C)c3)CC2)cc1,-0.61
CCN(C(=O)C1CCC(CNS(=O)(=O)c2cccc3nsnc23)CC1)c1ccccc1 (stereo unspecified),-1.8
Cc1ccc(S(=O)(=O)c2cn(CC(=O)Nc3ccc(C)c(Cl)c3)c3ccc(C)cc3c2=O)cc1,-0.09
CCOC(=O)c1c(Oc2ccc(C(=O)OC)cc2)nnc(-c2ccccc2)c1-c1ccccc1,-0.17
Cc1ccc(C(=O)N2CCC3(CC2)OCCc2c3[nH]c3ccccc23)c(=O)[nH]1,0.49
CCCN1CCN(CCCNC(=O)Cn2nc(C)n3c(cc4c(OC)cccc43)c2=O)CC1,-1.2
Cc1ccc(-c2cc(N)n(Cc3cccc(Cl)c3)n2)cc1,-2.3
COc1ccc(CN2CCN(Cc3cc(=O)oc4cc(C)ccc34)CC2)c(OC)c1OC,1.9
CSc1ccc(CNC(=O)C2CCN(c3nnc(-n4cccc4CNc4ccc(C)cc4)s3)CC2)cc1,0.16
O=C(Nc1ccc(Br)cc1C(=O)c1ccccc1Cl)c1ccc(Br)cc1,0.52
O=C(c1csc(-c2ncccn2)n1)N1CCCC(c2nc3ccccc3o2)C1 (stereo unspecified),-1.9
Cc1cccc(N2CCN(C(=O)Cn3ncc4c5ccccc5n(C)c4c3=O)CC2)c1C,-1.5
CCOCCCNC(=O)CN1C(=O)COc2ccc(S(=O)(=O)N3CCCC3)cc21,-1.1
O=S(=O)(O)CCS,-0.67
CCC(=O)N1CCc2cc(S(=O)(=O)NCCC(=O)Nc3ccc(C)cc3)ccc21,-0.97
COc1ccc(C2NC(=O)N(C)C3=C2C(=O)N(c2ccc(C)cc2)C3)cc1 (stereo unspecified),-2.9
CCOC(=O)c1ccc(NC(=O)Cn2cc(C(=O)c3cccs3)c3ccccc32)cc1,0.78
CCn1c(=O)n(-c2ccc3c(c2)OCO3)c2nc(-c3ccc(C(C)C)cc3)nc(C(N)=O)c21,-1.2
COc1ccc(-c2noc(CSc3nnc(Cc4ccccc4)n3-c3ccc(F)cc3)n2)cc1,-1.1
COc1ccc(Cl)cc1NC(=O)CSC1=Nc2ccccc2C2=NC(CC(=O)NC3CCCCC3)C(=O)N12 (stereo unspecified),0.12
Cc1cc(C)cc(C(=O)Nc2ccc(-c3cn4cccnc4n3)cc2)c1,1.8
CCSc1nnc2c(n1)OC(CC)N(C(C)=O)c1ccccc1-2 (stereo unspecified),-1.4
CCc1ccc(OCC(=O)Nc2c(C(=O)c3ccccc3)oc3ccccc23)cc1,-1.9
Cc1ccc(-c2cc3nccc(-c4cc([N+](=O)[O-])ccc4O)n3n2)cc1,0.3
COc1ccc2c(c1)sc1ncc(C(=O)NCc3cccc(C)c3)c(=O)n12,-1.7
CCN1CC2(CCN(C(=O)c3oc(C)nc3C)CC2)CC1=O,-1.5
CCC(=O)NCc1cc2n(n1)CCN(c1ncc(F)c(N(C)C)n1)C2,-0.47
Cc1cc(C)cc(NC(=O)C2CCCN(C(=O)c3cnn(-c4ccccc4)c3-n3cccc3)C2)c1 (stereo unspecified),-2.3
COc1cc(OC)cc(C(=O)Nc2cc3nn(-c4ccccc4)nc3cc2Cl)c1,0.52
CCN1CCN(Cc2c(O)ccc3oc(C)c(C(=O)Nc4cccc(C(F)(F)F)c4)c23)CC1,-0.28
COc1ccc(CCN2C(=O)N(c3ccc(F)cc3)C(=O)C2CC(=O)Nc2ccc(OC)cc2)cc1 (stereo unspecified),-2.5
O=[N+]([O-])O[C@H]1CO[C@H]2[C@@H]1OC[C@H]2O[N+](=O)[O-],0.33

# By substructure: the entries above containing a Cl atom.
SMILES,fixLJ activator
COc1ccc(NC(=O)C(C)n2nnc3sc(-c4ccccc4)cc3c2=O)cc1Cl (stereo unspecified),0.2
COc1ccc(OC)c(CCNC(=O)CS(=O)(=O)Cc2nc(-c3cccc(Cl)c3)oc2C)c1,-0.8
COc1ccccc1N1CCN(S(=O)(=O)c2c(C)sc3ncn(CC(=O)Nc4cccc(Cl)c4)c(=O)c23)CC1,-0.94
O=C(NCCN1CCCC(CO)C1)c1cccc(-c2ncccc2Cl)c1 (stereo unspecified),-3.8
CCCOc1ccc(C(=O)N(Cc2ccccc2Cl)C2CCS(=O)(=O)C2)cc1 (stereo unspecified),-1.1
CC(=O)Nc1ccc(Nc2nc3ccc(Cl)cc3n3cnnc23)cc1,0.59
Cc1ccc(C)c(N2CCN(c3nc4c(S(=O)(=O)c5ccccc5)nnn4c4ccc(Cl)cc34)CC2)c1,-0.13
CC(C)NS(=O)(=O)c1ccc(OCC(=O)N2CCN(c3cccc(Cl)c3)CC2)cc1,-1.2
CCc1ccc(-n2nc(CO)c(C(=O)NCc3ccccc3Cl)n2)cc1,0.67
Fc1ccccc1-n1ncc2c1ncn1nc(-c3ccccc3Cl)nc21,-0.12
Cc1cc(Cl)ccc1S(=O)(=O)N1CCC(O)C(C(=O)O)C1 (stereo unspecified),-0.98
Cc1ccccc1Cn1c(CN2CCN(c3cc(Cl)ccc3C)CC2)nc2c1c(=O)[nH]c(=O)n2C,0.47
Cc1ccc(S(=O)(=O)c2cn(CC(=O)Nc3ccc(C)c(Cl)c3)c3ccc(C)cc3c2=O)cc1,-0.09
Cc1ccc(-c2cc(N)n(Cc3cccc(Cl)c3)n2)cc1,-2.3
O=C(Nc1ccc(Br)cc1C(=O)c1ccccc1Cl)c1ccc(Br)cc1,0.52
COc1ccc(Cl)cc1NC(=O)CSC1=Nc2ccccc2C2=NC(CC(=O)NC3CCCCC3)C(=O)N12 (stereo unspecified),0.12
COc1cc(OC)cc(C(=O)Nc2cc3nn(-c4ccccc4)nc3cc2Cl)c1,0.52

# Additional compounds follow.
SMILES,fixLJ activator
CCN1C(=O)C(Cc2nc3ccccc3c(=O)n2-c2ccccc2)c2cc(Br)ccc21 (stereo unspecified),-3.1
Cc1cc(NS(=O)(=O)c2ccc(NC(=O)COc3ccc(Cl)cc3)cc2)nc(C)n1,-0.34
CCOc1ccc(-c2nonc2NC(=O)COc2c(C)cc(C)cc2C)cc1OCC,1.2
Cc1ccc2nc(-c3c[nH]c4ccccc34)c(Nc3ccccc3)n2c1,0.23
CCCSc1ncc(Cl)c(C(=O)Nc2ccc(S(=O)(=O)N3CCC(C)CC3)cc2)n1,1.3
COc1ccc(N2CCN(C(=O)c3ccc4c(c3)N(Cc3ccc(F)cc3)C(=O)c3ccccc3S4=O)CC2)cc1 (stereo unspecified),1
CCOC(=O)c1ccc(N2C(=O)c3n[nH]c(-c4cccs4)c3C2c2cccc(F)c2)cc1 (stereo unspecified),3
CCc1nc(CNC(=O)N2CCCC3(CCC(=O)N(CCOC)C3)C2)no1 (stereo unspecified),-0.03
Cc1oc(-c2cccc(Cl)c2)nc1CN1CCC(C(=O)NCCCN2CCN(c3ccccc3F)CC2)CC1,0.82
Cc1cc(C)cc(Oc2nc3c(c(=O)n(C)c(=O)n3C)n2Cc2ccc(F)cc2)c1,-0.83
Cc1ccc(S(N)(=O)=O)cc1NC(=O)c1c(-c2c(Cl)cccc2Cl)noc1C,-1.9
